miR-21 reporter: miR-21 reporter, rising signal | AID 2288 | 340,000 tested, under 10 active | HeLa miR-21 FLuc reporter, luciferase, 48 h | Potency, µM (series often up to 38.3 µM), for the others: top-dose reporter change, positive = more light; active = well fitted rising curve with a large enough effect; inconclusive = small, poorly fitted or top-dose-only effect; inactive = no such curve, though single readings can be large or run the other way;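 further: % of control where 0% means no effect; miR-21 action dims this reporter so a rising signal means less miR-21 action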
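HeLa miR-21-FLuc reporter line, endogenous miR-21; 2000 cells/well in DMEM/10% FBS; compound titration up to ~40uM final, 48 h, 37 degree Celsius; luciferase detection reagent, 15 min lysis, CCD luminescence.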
Rango-impB inh: prevents formation of the Rango-importin beta complex; 340,000 tested, 0.031% active; Potency, µM (titrated, usually from 92.2 µM), without a hit: at the top dose inhibition of complex formation; Rango CFP/YFP FRET sensor + importin beta, 45 min; Q14974; AID 540263; active = rising FRET ratio curve, often small or poorly fitted; inconclusive = mostly compound fluorescence or quenching in the first reads; inactive = flat curves in all reads;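 further: potency means the concentration at half of the fitted maximal effect; 0% = DMSO wells and 100% = buffer wells lacking importin beta; nearly all actives have a fitted effect of over 15% in size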
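FRET biosensor Rango (snurportin 1 IBB between N-terminal EYFP and C-terminal Cerulean), 50 nM in PBS/1 mM DTT/0.02% Tween-20/0.1% BSA, preincubated 5 min RT with compound; 0.125 microM importin beta added, 45 min RT, CFP/YFP FRET ratio read.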
Rango dissoc inh: inhibition of RanGTP-driven Rango-importin beta dissociation. O95149+P62826. AID 540253. 340,000 tested, 0.071% active. Potency, µM (doses to about 46.1 µM), for inactives: at the highest dose activity change, negative = inhibition. Biochemical FRET Rango-importin beta, RanGTP-induced dissociation; active means falling FRET ratio curve, often poorly fitted, with flat reads before Ran was added; inconclusive means other falling curves, or compound fluorescence or quenching; inactive means flat or rising ratio curve;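 further: potency means the concentration at half of the fitted maximal effect; % of control where 0% means no effect; nearly all actives have a fitted effect of over 45% in size; -100% = wells without RanGTP and RCC1; the record marks most hits as doubtful in a second field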
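Rango/importin beta premix (0.1/0.25 uM final), PBS + 1 mM DTT + 0.02% Tween-20 + 0.1% BSA; cpd 5 min RT; FRET pre-read; + RanGTP-RCC1 (0.6 uM Ran, 2 mM GTP, 0.2 uM RCC1); 45 min RT; FRET post-read, ex 430, em 486/530 nm.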
GLA inh pH 4.5: blocks human alpha-galactosidase A at pH 4.5. P06280. purified enzyme, 4-MU-alpha-Gal fluorescence, pH 4.5. activity change, negative = inhibition, % at 105 µM. 230,000 tested, under 10 active. AID 1467; inconclusive = small, poorly fitted or top-dose-only inhibition, or a rising curve; inactive = flat fitted curve, though single readings scatter; no compound was filed as active;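 further: 0% = full activity with enzyme and -100% = basal without enzyme; dose as in the result columns while the protocol names 77 µM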
Target sequence (P06280 whole entry, looked up): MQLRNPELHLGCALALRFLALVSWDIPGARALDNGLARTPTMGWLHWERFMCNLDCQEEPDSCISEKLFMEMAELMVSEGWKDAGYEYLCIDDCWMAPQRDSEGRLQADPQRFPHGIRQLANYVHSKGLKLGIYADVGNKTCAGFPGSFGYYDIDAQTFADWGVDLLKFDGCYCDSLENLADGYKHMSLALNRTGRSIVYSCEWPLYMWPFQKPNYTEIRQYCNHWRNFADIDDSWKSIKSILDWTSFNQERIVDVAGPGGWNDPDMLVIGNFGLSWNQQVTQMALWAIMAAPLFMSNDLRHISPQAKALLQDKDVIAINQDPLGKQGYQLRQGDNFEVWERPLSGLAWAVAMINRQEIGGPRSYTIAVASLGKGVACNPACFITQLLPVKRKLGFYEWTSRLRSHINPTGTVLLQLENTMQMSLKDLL
The depositor's hits bear a star; u = inconclusive; x = not tested or not shown; & = joins results of further samples.

miR-21 reporter	GLA inh pH 4.5	Rango dissoc inh	Rango-impB inh	mol
x	x	4%	5.2%	CCCCCCCCCCCCCCC(O)C[N+](C)(CCO)CCO (centres undefined)
-59%	x	-13%	1.8%	COc1ccc(C(=O)Nc2ccc3ccccc3c2)cc1OC
x	x	6%	6.5%	CN1CCN(C(CNS(=O)(=O)c2ccc(Br)cc2)c2ccc3c(c2)OCO3)CC1 (centres undefined)
-13%	x	5%	2.3%	O=C(Nc1nc2c(s1)CCCC2)c1ccc(N2C(=O)CCC2=O)cc1
-3%	5	-1%	-3.4%	Cc1ccc(S(=O)(=O)N2CCN(C(=O)CN3CCCCC3)C2C(C)C)cc1 (centres undefined)
-5%	-11	12%	1.8%	Cc1nc2c(-c3ccc(F)cc3)c(C)nn2c(C)c1CCC(=O)N1CCC(Cc2ccccc2)CC1
x	x	23%	-2.0%	CC(=O)N1CCC(N(CCCOC(C)C)C(=O)Nc2ccc(Cl)cc2)CC1
-27%	x	-8%	-1.3%	Cc1nn(-c2ccccc2)c(Cl)c1/C=N/NC(=O)c1nn(C)cc1[N+](=O)[O-]
-4%	3	1%	-0.8%	Cc1ccc(S(=O)(=O)N2CCN(CC(=O)N/N=C\c3cccnc3)CC2)cc1
-1%	-1&4	1%	-0.5%	CCC1=C(OC(=O)N(CC)CC)N2C(=O)OC(=NCC3CC3)[C@]2(C)[C@H]2C1=CC[C@H]1C(=O)NC(=O)[C@H]12
1%	x	-17%	0.9%	CCN(CC)S(=O)(=O)c1ccc(N2CCOCC2)c(NC(=O)C2CSC3(C)CCC(=O)N23)c1 (centres undefined)
-6%	x	-8%	-3.6%	COc1ccc(NC(=S)Nc2ccc(F)cc2)cc1
-6%	x	-3%	-2.7%	CCCc1c(C(=O)N/N=C/c2cccc(OCc3ccc(F)cc3)c2)nnn1-c1nonc1N
-2%	x	-5%	0.3%	Cc1ccc(NC(=O)C2CCN(S(C)(=O)=O)CC2)c(C)c1
0%	2	-6%	2.1%	Cc1cc(C)n(C(=O)c2ccc(C)c(S(=O)(=O)N3CCCC3)c2)n1
2%	x	-4%	-4.2%	Cc1[nH]n(-c2ccccc2)c(=O)c1N=Nc1ccc(C(N)=O)cc1
2%	2	8%	-1.8%	COC(=O)CSc1nnc(CCc2nc3ccccc3[nH]2)n1C
-4%	1	3%	-2.6%	CCOc1ccc(-c2[nH]ncc2-c2csc(C)n2)c(O)c1
-1%	x	9%	-0.7%	COC(=O)c1ccc(CNC(=O)C2CCC(=O)N(Cc3cccc(F)c3)C2)cc1 (centres undefined)
u	5	u	1.5%	CC(C)=NOc1cc(NC(=O)CCl)cc([N+](=O)[O-])c1
-2%	-9	x	x	CCOC(=O)/C(C(=O)Nc1ccc(Cl)cc1Cl)=C1/NC(C)(C)Cc2ccccc21
0%	x	1%	-2.1%	CC(O)c1cccc(NC(=O)Nc2cccc(NC(=O)Nc3cccc(C(C)O)c3)c2)c1 (centres undefined)
1%	x	-15%	4.1%	COc1ccc2c(c1)c1nc3n(c(=O)c1n2CC(=O)Nc1ccccc1)CCS3
5%	x	1%	-4.7%	O=C(NCCc1cccc(C(F)(F)F)c1)C1CCC(=O)N(CCc2cccc(F)c2)C1 (centres undefined)
1%	0	-16%	-1.0%	CCCN(CCC)C(=O)C1CCCN1S(=O)(=O)c1cccc2nsnc12 (centres undefined)
x	-2	1%	4.8%	CCOC(=O)CN1C(=O)N[C@@H](CCc2ccccc2)C(C(=O)OC)=C1C
-24%	-6	u	10%	Nc1c(C(=O)NCc2ccccc2)sc2nc3c(cc12)C(=O)CCC3
1%	x	u	-3.0%	Cc1cccc(NC(=O)c2cccc(NC(=O)c3ccccc3)c2)n1
0%	x	-3%	3.4%	COc1ccc(CNCCC2(O)CC(C)N(C)CC2C)cc1OC (centres undefined)
0%	-9	-2%	-1.9%	O=C(COc1ccc(S(=O)(=O)NC2CCCCC2)cc1)NC1CCCC1

Gathered by group: the entries above with a Cl atom
miR-21 reporter	GLA inh pH 4.5	Rango dissoc inh	Rango-impB inh	mol
x	x	23%	-2.0%	CC(=O)N1CCC(N(CCCOC(C)C)C(=O)Nc2ccc(Cl)cc2)CC1
-27%	x	-8%	-1.3%	Cc1nn(-c2ccccc2)c(Cl)c1/C=N/NC(=O)c1nn(C)cc1[N+](=O)[O-]
u	5	u	1.5%	CC(C)=NOc1cc(NC(=O)CCl)cc([N+](=O)[O-])c1
-2%	-9	x	x	CCOC(=O)/C(C(=O)Nc1ccc(Cl)cc1Cl)=C1/NC(C)(C)Cc2ccccc21

Returning to the listing, repeating the three entries before the break.
miR-21 reporter	GLA inh pH 4.5	Rango dissoc inh	Rango-impB inh	mol
1%	x	u	-3.0%	Cc1cccc(NC(=O)c2cccc(NC(=O)c3ccccc3)c2)n1
0%	x	-3%	3.4%	COc1ccc(CNCCC2(O)CC(C)N(C)CC2C)cc1OC (centres undefined)
0%	-9	-2%	-1.9%	O=C(COc1ccc(S(=O)(=O)NC2CCCCC2)cc1)NC1CCCC1
-3%	0	1%	0.0%	O=C(COC(=O)c1ccc2c(c1)OCCO2)NCc1ccccc1
-2%	7	10%	-1.2%	COC(C[C@@H](O)C[C@H](O)COCc1ccccc1)OC
-1%	0	-8%	-4.6%	O=C(NCc1ccc2c(c1)OCO2)C1CCN(S(=O)(=O)N2CCOCC2)CC1
2%	x	27%	1.8%	Cc1ccccc1NC(=O)CSc1ccc2nnc(-c3ccccn3)n2n1
2%	0	-2%	0.9%	O=C(O)c1cccc(Nc2cc(Cl)c3nonc3c2[N+](=O)[O-])c1
x	x	0%	0.4%	Cc1ccc(NC(=O)CN2CCCC2c2cccn2C)c(Br)c1 (centres undefined)
-12%	-5	-5%	-2.8%	CN(C)CCN1C(=O)c2oc3ccccc3c(=O)c2C1c1ccc(F)cc1 (centres undefined)
0%	2	3%	-0.6%	CC1(C)CC(=O)C2=C(C1)OC(N)=C([N+](=O)[O-])C2c1ccc(C#N)s1 (centres undefined)
u	-15	-7%	3.1%	Cc1ccc(C)c(-c2cc(C(=O)Nc3sc(C)c(C)c3C(N)=O)c3ccccc3n2)c1
17%	-2	-16%	-0.8%	Cc1ccc(S(=O)(=O)c2nc(Nc3nccs3)sc2Cl)cc1
5%	-6	5%	-2.7%	CCOC(=O)c1c(C)sc2c1N(C(=O)CN1CCOCC1)c1cc(Cl)ccc1S2
3%	x	5%	-2.6%	CCOCCCNC(=O)CCn1nc(-c2ccc(Cl)cc2)ccc1=O
7%	-1	0%	2.5%	COc1ccccc1N(CC(=O)N(c1ccccc1)C(C)C)S(=O)(=O)c1cccs1
x	x	1%	-0.3%	CCN1C(=O)[C@@H]2[C@@H](c3ccc(-c4ccc(OC)cc4)cc3)N3CCCC[C@@]3(C(=O)OC)[C@@H]2C1=O
4%	x	-8%	0.8%	COc1ccc(C(=O)CCS(=O)(=O)c2ccc(C)cc2)cc1
-8%	6	0%	-2.2%	O=C1N/C(=N/c2ccccn2)SC1Cc1ccccc1 (centres undefined)
-6%	-7	17%	-6.7%	Cc1nn(Cc2ccc(F)cc2)c2sc(C(=O)Nc3ccccc3N3CCOCC3)cc12
19%	x	30%	-3.6%	CC(C)OCCCNC(=O)COCC(=O)Nc1ccc(OCCc2ccccc2)cc1
x	x	-3%	-2.3%	Cc1ccsc1C(=O)OCC(=O)NC1CCCC(C)C1C (centres undefined)
0%	x	-3%	-0.6%	COc1ccc(C2/C(=C(/O)c3ccc4c(c3)CC(C)O4)C(=O)C(=O)N2Cc2cccnc2)cc1 (centres undefined)
1%	2	u	0.6%	CCc1ccc(NC(=S)N2CCN(c3cccc(OC)c3)CC2)cc1
x	x	8%	-3.6%	N#Cc1ccc(NC(=O)NN2CCCCCC2)cc1
-66%	x	1%	0.0%	CC1=NN(C(N)=S)C(=O)C1N=Nc1cccc(Cl)c1 (centres undefined)
10%	x	-19%	1.9%	CC(C)/C=C/C(=O)N1CCCC(N2CCN(c3ccccc3F)CC2)C1 (centres undefined)
-6%	-12	-6%	-7.1%	C/C(=N\O)c1ccn(S(=O)(=O)c2ccc(Cl)cc2)c1
x	x	13%	0.6%	N#C/C(=C\c1ccccc1)C(=O)NNS(=O)(=O)c1ccc(Br)cc1
-7%	-1	-12%	2.3%	COc1ccccc1CNc1ncnc2c1nnn2Cc1ccccc1
0%	-2	-6%	7.8%	N#C/C(=C\c1ccccc1)C(=O)N(c1ccccn1)C1CCCCC1
-14%	x	24%	3.2%	COc1ccc2cc(C(=O)C3CCCN(C(=O)c4cncs4)C3)ccc2c1 (centres undefined)
0%	x	-21%	-7.5%	Cc1cc(N2C(=O)C(O)=C(C(=O)c3ccco3)C2c2ccccc2F)no1 (centres undefined)

Retrieved one by one from the list above, five records:
miR-21 reporter	GLA inh pH 4.5	Rango dissoc inh	Rango-impB inh	mol
0%	2	3%	-0.6%	CC1(C)CC(=O)C2=C(C1)OC(N)=C([N+](=O)[O-])C2c1ccc(C#N)s1 (centres undefined)
19%	x	30%	-3.6%	CC(C)OCCCNC(=O)COCC(=O)Nc1ccc(OCCc2ccccc2)cc1
-14%	x	24%	3.2%	COc1ccc2cc(C(=O)C3CCCN(C(=O)c4cncs4)C3)ccc2c1 (centres undefined)
x	x	13%	0.6%	N#C/C(=C\c1ccccc1)C(=O)NNS(=O)(=O)c1ccc(Br)cc1
0%	x	-21%	-7.5%	Cc1cc(N2C(=O)C(O)=C(C(=O)c3ccco3)C2c2ccccc2F)no1 (centres undefined)

Next section.
miR-21 reporter	GLA inh pH 4.5	Rango dissoc inh	Rango-impB inh	mol
-66%	2	u	u	CCc1ccc2nc(N3C(=O)C(O)=C(C(=O)c4ccco4)C3c3cccs3)sc2c1 (centres undefined)
2%	x	14%	-1.7%	CCOC(=O)Nc1ccc2c(c1)N(C(=O)CCN(CC)CC)c1ccccc1CC2
-9%	1	15%	0.6%	CC1C(c2ccccc2)C(C#N)(C#N)C2(C#N)C(=O)NC1(N)C2C (centres undefined)
-21%	12	-1%	0.2%	COc1ccccc1C(=O)Nc1ccc(N2CCN(C(C)=O)CC2)cc1
17%	8	-11%	-0.6%	O=S(=O)(Nc1ccc2nc(C(F)(F)F)[nH]c2c1)c1ccccc1
-12%	-4	10%	-3.2%	Cc1ccc(-n2c(C)cc(/C=N/NC(=O)CC3(C)OCCO3)c2C)cc1
x	x	-23%	2.1%	CC(=O)NCCNC(=O)c1cccc(NS(=O)(=O)c2ccc3c(c2)OCCO3)c1
-4%	x	0%	1.8%	CN(C)CCCOC(=O)N1c2ccccc2C=Cc2ccccc21
-7%	-7	-6%	0.8%	Cc1cc(=O)[nH]c(SCC(=O)Nc2nc3c(s2)CCCC3)n1
x	x	-9%	-0.4%	Cc1nc(SCC(=O)N2CCCCCC2)[nH]c(=O)c1C
-3%	-2	5%	-0.4%	N#Cc1cnn(-c2cccc(Cl)c2)c1-n1cccc1
-5%	x	u	u	N#C/C(=C\c1cn(CC(=O)O)c2ccccc12)C(=O)NCc1ccccc1
-2%	0	-7%	-1.2%	COC(=O)c1ccccc1NC=C1C(=O)OC2(CCCCC2)OC1=O
-8%	x	-16%	-0.7%	O=C(NNC(=O)c1ccc2ccccc2c1O)NC1CCCCC1
-8%	1	0%	2.4%	CCOC(=O)/C(C#N)=C1/C=CN(Cc2ccccc2)C=N1
-1%	1	0%	6.5%	CN(c1ccccc1C(=O)Nc1cccc(Cl)c1Cl)S(C)(=O)=O
x	x	0%	0.2%	COc1ccccc1C(=O)Nc1ccc(C)c(S(=O)(=O)N2CCCCC2)c1
-4%	12	27%	7.4%	Cc1cccc(Nc2nc3c(S(=O)(=O)c4ccccc4)nnn3c3ccccc23)c1C
-29%	-13	0%	0.4%	O=C(Nc1cccc(Cl)c1N1CCCC1)c1cc2ccccc2o1

These rows are one share of the data. The share of hits here may be higher or lower than overall.
